# KCNQ2 inh – KCNQ2 channel blockers in CHO-K1 cells – cell-based, FluxOR thallium flux, B-score, primary screen (AID 2156); O88943; 20 min; active compounds read low; only compounds with negative scores are shown here; some inactives read as strong as hits; B-score at 10 µM; actives 1.1% (n = 310,000);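 active means fluorescence ratio B-score at most minus 3 library SDs, with starting brightness B-score within 2 library SDs, cut at about -5.5 in these data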
# Target sequence (O88943 whole entry, looked up): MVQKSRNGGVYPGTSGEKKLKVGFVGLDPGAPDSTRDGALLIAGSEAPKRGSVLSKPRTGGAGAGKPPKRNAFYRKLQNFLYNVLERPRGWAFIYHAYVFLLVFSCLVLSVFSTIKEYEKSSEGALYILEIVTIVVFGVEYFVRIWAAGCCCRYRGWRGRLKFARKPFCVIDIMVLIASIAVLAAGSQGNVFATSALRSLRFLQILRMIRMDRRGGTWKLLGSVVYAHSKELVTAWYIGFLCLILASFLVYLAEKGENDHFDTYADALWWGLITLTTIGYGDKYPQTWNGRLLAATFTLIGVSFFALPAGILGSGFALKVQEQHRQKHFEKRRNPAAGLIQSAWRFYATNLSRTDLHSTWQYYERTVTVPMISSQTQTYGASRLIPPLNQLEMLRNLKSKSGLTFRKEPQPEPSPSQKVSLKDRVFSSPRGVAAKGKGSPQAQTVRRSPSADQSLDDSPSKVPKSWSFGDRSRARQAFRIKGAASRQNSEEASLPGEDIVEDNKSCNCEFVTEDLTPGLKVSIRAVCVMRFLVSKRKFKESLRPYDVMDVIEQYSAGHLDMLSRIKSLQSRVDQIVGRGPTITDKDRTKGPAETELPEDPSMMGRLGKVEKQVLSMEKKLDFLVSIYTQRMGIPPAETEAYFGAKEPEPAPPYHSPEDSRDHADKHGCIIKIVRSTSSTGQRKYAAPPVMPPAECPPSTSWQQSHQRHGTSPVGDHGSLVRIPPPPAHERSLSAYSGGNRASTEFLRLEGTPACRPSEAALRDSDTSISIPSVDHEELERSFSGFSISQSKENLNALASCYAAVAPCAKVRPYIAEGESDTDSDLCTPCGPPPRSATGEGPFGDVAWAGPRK
# KCNQ2 inh baseline – also measured in KCNQ2 inh; calls as there; B-score; measured here: initial fluorescence intensity artifact check;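 brightness before thallium and not channel activity; 0 = typical well and far values either way flag optical interference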
# * hit, by the source's call; i = inactive.
SMILES,KCNQ2 inh,KCNQ2 inh baseline
COc1cccc(C(=O)CN(C(=O)c2ccc(Cl)c(Cl)c2)N2C(=O)c3ccccc3C2=O)c1,i,0.01
CC(C)C(c1nnnn1Cc1ccccc1)N1CCc2ccccc2C1 (stereo unspecified),i,-0.08
COCCCNC(=S)N1CCC(NC(=O)Nc2ccc(C)cc2)CC1,i,-0.18
CC1CCCCN1CCNC(=O)c1ccc2c(c1)N(Cc1ccccc1F)C(=O)c1ccccc1S2=O (stereo unspecified),i,1.4
CC(=O)Nc1ccc(NC(=O)C(C)OC(=O)CCN=C2NS(=O)(=O)c3ccccc32)cc1 (stereo unspecified),i,0.03
CC(C)(C)c1cc(C(=O)NC2CC2)n(Cc2ccc(F)cc2)n1,i,-0.03
CCn1ncc(Cl)c1C(=O)Nc1cc(Cl)ccc1Cl,i,1.8
Cc1ccc2c(c1)cc(CN(Cc1ccc3c(c1)OCO3)C(=O)c1ccccc1)c1nnnn12,i,1.3
CC1CCN(S(=O)(=O)c2csc(C(=O)Nc3ccccc3)c2)CC1,i,-1.5
CC1CN(S(=O)(=O)c2cccc(C(=O)N=c3sccn3C)c2)CC(C)O1 (stereo unspecified),i,0.71
C=CCN(Cc1nc(-c2ccccc2)no1)C(=O)c1ccc2c(c1)OCO2,i,-0.3
COc1ccc(OC)c(S(=O)(=O)N(C)CC(=O)Nc2cc(Cl)ccc2OC)c1,i,0.2
Cc1ccccc1-n1c(SCC(=O)N2CCN(c3ccccc3)CC2)nnc1-c1ccncc1,i,1.2
CCOC(=O)C1CCN(C(=O)c2cc3cc(C)ccc3[nH]2)CC1,i,0.19
COc1ccc(CN2CCN(CC=C(C)C)C(CCO)C2)cc1Cn1cncn1 (stereo unspecified),i,0.1
CCN(CC)CCN(C(=O)c1ccc(C(=O)c2ccccc2)cc1)c1nc2cc3c(cc2s1)OCO3,i,-0.95
Cc1ccc(S(=O)(=O)N(C)/N=C/C=C/c2ccccc2)cc1,i,0.64
COc1ccc(C(=O)N2CCN(S(=O)(=O)c3ccc(F)cc3)CC2)cc1OC,i,2
CCOC(=O)CCCc1c[nH]c2ccccc12,i,-0.02
COC(=O)c1ccc(N2CCN(c3ccccc3)CC2)c(NC(=O)C2CC2)c1,i,-0.46
CCn1cc(C(=O)NCCCN2CCC(C)CC2)c(=O)c2cc(S(=O)(=O)N3CCOCC3)ccc21,i,0.1
CCCNC(=O)CCc1nnc2ccc(N3CCC(C)CC3)nn12,i,0.1
COc1ccc(NC(=O)c2cc(-c3cc(OC)c(OC)c(OC)c3)nc3ccccc23)c(OC)c1,-6*,1.5*
O=C(C(Cl)c1ccccc1)N1CCCC1 (stereo unspecified),i,2.7
COc1cc(O)c(C(CCN2CCN(c3ccccc3)CC2)c2ccc(N(C)C)cc2)c(OC)c1 (stereo unspecified),i,-0.97
CCOc1ccc(Cn2c(=O)oc3ccccc32)cc1,i,1.2
c1ccc(Cn2ccnc2SCc2nnc(-c3ccccc3)o2)cc1,i,-0.48
CC1=CC(C)(C)N(C(=O)CSc2nnc(C)s2)c2ccc(C)cc21,i,-0.09
COc1ccc(CNC(=O)[C@@H]2CC=C[C@@H]3CCN(C4CC4)C(=O)[C@@H]32)cc1,i,2.1
CCN(CC)S(=O)(=O)c1ccc(C(=O)Nc2ccc(C(F)(F)F)n(C)c2=O)cc1,i,-0.08

# Random excerpt: 2 compounds from above
SMILES,KCNQ2 inh,KCNQ2 inh baseline
CCn1cc(C(=O)NCCCN2CCC(C)CC2)c(=O)c2cc(S(=O)(=O)N3CCOCC3)ccc21,i,0.1
CCn1ncc(Cl)c1C(=O)Nc1cc(Cl)ccc1Cl,i,1.8

# Carrying on:
SMILES,KCNQ2 inh,KCNQ2 inh baseline
CCCCOCCCNC1=NCCCCC1,i,0.1
OC(CN1CCN(c2ccccn2)CC1)Cn1c2ccc(Cl)cc2c2cc(Cl)ccc21 (stereo unspecified),i,-0.18
O=C(Cc1ccccc1)NC1(O)C(=O)c2ccccc2C1=O,i,-0.37
COc1cccc(/C=C2/Sc3ccc(C(=O)NCCN4CCCC4)cc3NC2=O)c1,i,-1.9
O=C(NCC(c1ccco1)N1CCOCC1)c1cccc([N+](=O)[O-])c1 (stereo unspecified),i,0.09
O=C(Cc1ccc(F)cc1)Nc1ccc(S(=O)(=O)N2CCCC2)cc1,i,2
COc1cc(/C=C/C(=O)N2CCCN(C(=O)/C=C/c3cc(OC)c(OC)c(OC)c3)CC2)cc(OC)c1OC,i,1.3
Cc1cc(N2CCN(C)CC2)n2cc(-c3ccc(F)cc3)nc2n1,i,0.02
Cc1cccc(NC(=O)Cn2cc(C(=O)c3ccco3)c3ccccc32)c1,i,-0.1
C/C(=N/NC(=O)c1ccncc1)C1=C(O)CC(C)(C)CC1=O,i,-0.15
O=C(Nc1cccc([N+](=O)[O-])c1)c1ccc(CSc2ccccc2)cc1,i,1.4
COc1ccc(NC(=O)CSc2ccc(-c3cccs3)nn2)c(OC)c1,i,0.01
COCCNC(=O)C(c1cccnc1)N(Cc1ccc(C)cc1)C(=O)Cn1nnc2ccccc21 (stereo unspecified),i,-0.95
O=C(N/N=C/c1ccc(OC(F)F)cc1OC(F)F)NC1CCCCC1,i,1.2
CCC(C)C(=O)Nc1ccc(S(=O)(=O)N2CCCC2)cc1 (stereo unspecified),i,-0.17
Cc1cc(C)cc(NC(=O)CN2C(=O)COc3ccc(S(=O)(=O)N4CCCC4)cc32)c1,i,-0.81
OC1(c2cccs2)CN(c2ccc(Cl)cc2)C2=[N+]1CCCC2 (stereo unspecified),i,-0.03
COc1ccc(Cn2nnnc2C(c2cc3cc(C)ccc3[nH]c2=O)N2CCN(C)CC2)cc1 (stereo unspecified),i,-0.39
COc1ccccc1NC(=O)Cc1c(F)cccc1Cl,i,0.27
Nc1nc(-c2cccs2)c(-c2cccs2)s1,i,0.74
C(#CCN1CCC(Cc2ccccc2)CC1)COCCOCc1ccccc1,i,0.25
CN(C)CCN1C(=O)c2oc3ccc(F)cc3c(=O)c2C1c1ccncc1 (stereo unspecified),i,0.31
CCN(c1cccc(C(F)(F)F)c1)S(=O)(=O)c1ccc2c(c1)CCN2C(=O)C1CC1,i,0.21
O=C1CC(C(=O)Nc2ccccc2)C2(CCCCC2)O1 (stereo unspecified),i,-0.73
CS(=O)(=O)N(Cc1ccccc1)c1ccc(C(=O)NCc2cccnc2)cc1,i,-0.46
COc1ccc(-n2c(C)cc(C(=O)CSc3ccc(NC(C)=O)cc3)c2C)cc1,i,1.1
CCC(=O)Nc1nnc(CSCc2ccccc2)s1,i,-0.7
CSCCC(NC(=O)c1ccccc1Br)C(=O)N1CCCC(C(F)(F)F)C1 (stereo unspecified),-9.3*,0.25*
COC(=O)C(CC(=O)c1ccc(Cl)cc1)c1ccc(C)cc1 (stereo unspecified),-6.5*,0.6*
CC(=O)Nc1ccc(NC(=O)CSc2ccc(-c3cccs3)nn2)cc1,i,-0.35
CC1=CC2=NC(=O)/C(=C\c3cccn3CCOc3cc(C)ccc3C)C(=N)N2O1,i,-2
CCCCNS(=O)(=O)c1ccc2c(c1)oc(=O)n2CC(=O)OCC,i,-0.78
NCCN=C1NS(=O)(=O)c2ccccc21,i,0.95
CCOCC(O)CNC(=O)c1ccc2nc(Cc3ccc(OC)c(OC)c3)oc2c1 (stereo unspecified),i,-1.2
CC(=O)Nc1ccc(Nc2cc(C)nc3c(-c4ccc(Cl)cc4)cnn23)cc1,i,1.8
CCOC(=O)C1=C(C)N=c2sc(=C(C)C)c(=O)n2C1c1ccc(N(C)C)cc1 (stereo unspecified),i,-1.7
COc1ccc(NS(=O)(=O)c2cccc(NC(=O)CCC(=O)c3cccs3)c2)cc1,i,4
COC(=O)C1=C(C)NC(C)=C(C(=O)OC)C1c1cc2cc(C)ccc2[nH]c1=O,i,0.95
O=c1c(Cl)c(N2CCCCC2)cnn1-c1nc2ccccc2[nH]1,i,1
CC1CCN(S(=O)(=O)c2ccc3c(c2)N(CC(=O)NCCN2C(C)CCCC2C)C(=O)CS3)CC1 (stereo unspecified),i,-0.48
CC(C)c1cc(N2CCOCC2)n2ncc(-c3ccccc3)c2n1,i,-0.25
CCn1c2ccccc2c2nc3cc(OC)c(OC)cc3nc21,i,0.62
COc1ccc(C(C#N)C2(C)OCCO2)cc1OC (stereo unspecified),i,0.02
Cn1c(OCc2ccco2)nc2c1c(=O)n(Cc1ccc(Cl)c(Cl)c1)c(=O)n2C,i,-0.09
O=C(N/N=C/c1ccccc1OC(F)F)NC1CCCCC1,i,-0.63
O=C(c1c(F)cccc1Cl)N1CCN(c2ccccn2)CC1,i,-0.36
O=C(CSc1ccc2nnc(-c3ccccn3)n2n1)Nc1cccc(F)c1,i,0.44
CCCNc1cc(C)oc(=O)c1C(=O)CC,i,0.01
COc1ccccc1-c1cc(C(=O)Nc2cc(C)on2)no1,i,1.5
COc1ccc(C(C#N)N2CCOCC2)cc1 (stereo unspecified),i,-1.6
CC(=O)c1ccc(NC(=S)N2CCN(C(=S)Nc3ccc(C(C)=O)cc3)C(C)C2)cc1 (stereo unspecified),i,-1.9
COC(=O)C1=C(C)N(Cc2ccccc2)C(=O)N[C@H]1c1cccc(C(F)(F)F)c1,i,-0.44
Cc1ccc2c(c1)N(C(=O)CCC(=O)NCCN1CCOCC1)CCO2,i,-2.5
O=C(Nc1ccc(NC(=S)NC(=O)c2cccs2)cc1)c1ccco1,i,1.6
COc1ccc(N=C2SC(C(=O)Nc3ccc(C(=O)O)cc3)CC(=O)N2Cc2cccs2)cc1 (stereo unspecified),i,-0.9
CCOC(=O)c1c(C)[nH]c(C)c1S(=O)(=O)N(C)CC(=O)Nc1ccc(C)cn1,i,-0.46
O=C(CNC(=O)c1ccccc1Br)NCCSc1ccc(Br)cc1,i,1.5
COc1ccc(-c2nc(CN3CCC(C(=O)NC4CC4)CC3)c(C)o2)cc1OC,i,-0.5
O=C(CNC(=O)c1ccco1)N/N=C/c1ccc(C(=O)O)cc1,i,-0.02
CN(C)c1ccc(SC#N)cc1,i,-0.21

# Look-ups from above:
# KCNQ2 inh baseline with COC(=O)C1=C(C)N(Cc2ccccc2)C(=O)N[C@H]1c1cccc(C(F)(F)F)c1 reads -0.44
# KCNQ2 inh baseline with COc1ccc(OC)c(S(=O)(=O)N(C)CC(=O)Nc2cc(Cl)ccc2OC)c1 reads 0.2
# KCNQ2 inh baseline with O=C(Nc1ccc(NC(=S)NC(=O)c2cccs2)cc1)c1ccco1 reads 1.6
# KCNQ2 inh baseline with CC(=O)Nc1ccc(Nc2cc(C)nc3c(-c4ccc(Cl)cc4)cnn23)cc1 reads 1.8
# KCNQ2 inh baseline with COc1ccc(-c2nc(CN3CCC(C(=O)NC4CC4)CC3)c(C)o2)cc1OC reads -0.5

# Structural class, those above with bromine.
SMILES,KCNQ2 inh,KCNQ2 inh baseline
CSCCC(NC(=O)c1ccccc1Br)C(=O)N1CCCC(C(F)(F)F)C1 (stereo unspecified),-9.3*,0.25*
O=C(CNC(=O)c1ccccc1Br)NCCSc1ccc(Br)cc1,i,1.5

# Continuation:
SMILES,KCNQ2 inh,KCNQ2 inh baseline
O=c1ccc(-c2ccccc2)nn1Cc1ccc(F)cc1,i,-0.81
CCN1CCN(C(=S)NCCOC)CC1,i,0.64
CN(CC(=O)Nc1ccccc1Cl)C(=O)COC(=O)CNC(=O)c1ccc(Br)o1,i,0.86
CNC(=S)NCCN1CCOCC1,i,2.2
COc1ccc(C(CNC(=O)c2cc(F)c(F)c(F)c2F)N2CCOCC2)cc1 (stereo unspecified),i,-0.81
Cc1ccc(S(=O)(=O)Nc2ccc(C(=O)NCc3cccnc3)cc2)cc1,i,-0.31
CCC1CCc2c(sc(NC(=O)c3ccoc3C)c2C(N)=O)C1 (stereo unspecified),i,0.62
CCOc1ccc(S(=O)(=O)Nc2cc(SCC(=O)O)c(O)c3ccccc23)cc1,i,0.12
CN(C)CCN(Cc1cccs1)c1ccccn1,i,-1.8
CCOc1cc(/C=N/n2c(C)nc3sc(C)c(C)c3c2=O)ccc1O,i,-0.15
Cn1cc(CN(CCO)Cc2cccs2)c(-c2cccc(Cl)c2)n1,i,-0.06
C=CCSc1nc(N)c(C(=O)Nc2ccccc2OC)cc1C(=O)Nc1ccccc1,i,0.61
CCn1c(=O)c(C(C)=O)c(O)c2ccccc21,i,-0.79
Cc1ccc(S(=O)(=O)NCc2ccncc2)cc1C(=O)NCC(C)C,i,-0.82
COc1ccccc1-n1c2c(cc(C(=O)N3CCC(C)CC3)c1=O)C(=O)CC(C)(C)C2,i,0.67

# Four entries from above, set out differently.
KCNQ2 inh	KCNQ2 inh baseline	SMILES
i	0.01	COc1cccc(C(=O)CN(C(=O)c2ccc(Cl)c(Cl)c2)N2C(=O)c3ccccc3C2=O)c1
i	-0.08	CC(C)C(c1nnnn1Cc1ccccc1)N1CCc2ccccc2C1 (stereo unspecified)
i	-0.18	COCCCNC(=S)N1CCC(NC(=O)Nc2ccc(C)cc2)CC1
i	1.4	CC1CCCCN1CCNC(=O)c1ccc2c(c1)N(Cc1ccccc1F)C(=O)c1ccccc1S2=O (stereo unspecified)

# The listing continues.
SMILES,KCNQ2 inh,KCNQ2 inh baseline
O=C(/C=C/c1ccc([N+](=O)[O-])cc1)/C=C/c1ccco1,-6.1*,1.2*
CNC(=O)c1ccsc1NC(=O)C1CCCN1S(=O)(=O)c1cccs1 (stereo unspecified),i,2.4
O=C(Oc1ccc(Br)cc1)c1n[nH]c(=O)c2ccccc12,i,1.6
CCOc1ccc(CCNC(=O)COC(=O)/C=C/c2ccco2)cc1OCC,i,0.04
Cc1cc(C)c(NC(=O)CN2CCN3CCCC3C2)c(C)c1 (stereo unspecified),i,0.94
COc1ccc(-c2onc(C)c2-c2cscn2)c(O)c1,i,0.98
CNC(=S)Nc1ccc(Cc2ccncc2)cc1,i,1.4
CCC(=O)N1CCc2cc(S(=O)(=O)CCC(=O)NCc3ccc4c(c3)OCO4)ccc21,i,-0.58
CC(C)C1=CC2=CCC3C(C)(C(=O)O)CCCC3(C)C2CC1 (stereo unspecified) (tested in a mixture with another compound),-5.8*,0.06*
Cc1ccc(C2=N/C(=C\c3cccs3)C(=O)N2Nc2ccccc2)cc1,i,0.6
CC(C)N1CC(C(=O)Nc2ccccc2)CC1=O (stereo unspecified),i,1.3

# An excerpt, so the mix of outcomes need not match the whole.
